Source: PubChem
HSV augment – increases HSV replication in cells. HSV replication augmentation in cells, fold increase. maximum fold increase. 220,000 compounds, 0.005% hits. AID 1956;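 active = peak rise of 1.5-fold or more in the series; tested in PC3 cells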;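 also: first round at 10 µM; read as green reporter fluorescence; hits show the peak of a series up to 25 µM; 1 = signal of infected wells without compound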
HSV augment primary fold – also measured in HSV augment; calls as there; fold increase; compound at 10 µM; measured here: primary screen fold increase 10 uM; tested in PC3 cells;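 GFP signal in the first replicate; 1 = infected wells without compound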
* marks the source's active call; other numbers are inactive results; i = inactive. The list is partial (hit frequency here may not be typical).

SMILES | HSV augment | HSV augment primary fold
CCCOc1ccccc1-c1nc2n[nH]nc2c(=O)[nH]1 | i | 0.68
COc1nc(C)nc(Cl)c1NC1=NCCN1 | i | 0.89
CC(Oc1c(Cl)cccc1Cl)C1=NCCN1 (stereo unspecified) | i | 0.61
CN(C)C/C=C(/c1ccc(Br)cc1)c1cccnc1 | i | 0.9
C[C@]12CC3CC(N)(C1)C[C@@](C)(C3)C2 | i | 0.95
CC(=O)O[C@]1(C(C)=O)CC[C@H]2[C@@H]3C=C(Cl)C4=CC(=O)[C@@H]5C[C@@H]5[C@]4(C)[C@H]3CC[C@@]21C | i | 0.67

Whole records, quoted from the list. Order of screens: HSV augment | HSV augment primary fold
CC(Oc1c(Cl)cccc1Cl)C1=NCCN1 (stereo unspecified) is listed with i | 0.61
C[C@]12CC3CC(N)(C1)C[C@@](C)(C3)C2 is listed with i | 0.95
CC(=O)O[C@]1(C(C)=O)CC[C@H]2[C@@H]3C=C(Cl)C4=CC(=O)[C@@H]5C[C@@H]5[C@]4(C)[C@H]3CC[C@@]21C is listed with i | 0.67
